Compound activity deposited in PubChem by National Center for Advancing Translational Sciences (NCATS).
NPR1 antag – antagonists of human natriuretic peptide receptor Npr1; Potency, µM (doses to about 46.3 µM), without a hit: at the highest dose activity change, negative = inhibition, most hits filed as inhibitors; HEK293 hNpr1 GloSensor cGMP, ANP-stimulated luminescence; AID 1347048; hit rate 1.6% among 76,000; active = well fitted inhibition curve with a large enough effect; inconclusive = small, poorly fitted or top-dose-only effect; inactive = no such curve, though single readings can be large or run the other way;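 further: nearly all actives have a fitted effect of over 60% in size; nearly all hits also lower the signal before the agonist is added; a reference antagonist and vehicle were the controls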
Target sequence (P16066 whole entry, looked up): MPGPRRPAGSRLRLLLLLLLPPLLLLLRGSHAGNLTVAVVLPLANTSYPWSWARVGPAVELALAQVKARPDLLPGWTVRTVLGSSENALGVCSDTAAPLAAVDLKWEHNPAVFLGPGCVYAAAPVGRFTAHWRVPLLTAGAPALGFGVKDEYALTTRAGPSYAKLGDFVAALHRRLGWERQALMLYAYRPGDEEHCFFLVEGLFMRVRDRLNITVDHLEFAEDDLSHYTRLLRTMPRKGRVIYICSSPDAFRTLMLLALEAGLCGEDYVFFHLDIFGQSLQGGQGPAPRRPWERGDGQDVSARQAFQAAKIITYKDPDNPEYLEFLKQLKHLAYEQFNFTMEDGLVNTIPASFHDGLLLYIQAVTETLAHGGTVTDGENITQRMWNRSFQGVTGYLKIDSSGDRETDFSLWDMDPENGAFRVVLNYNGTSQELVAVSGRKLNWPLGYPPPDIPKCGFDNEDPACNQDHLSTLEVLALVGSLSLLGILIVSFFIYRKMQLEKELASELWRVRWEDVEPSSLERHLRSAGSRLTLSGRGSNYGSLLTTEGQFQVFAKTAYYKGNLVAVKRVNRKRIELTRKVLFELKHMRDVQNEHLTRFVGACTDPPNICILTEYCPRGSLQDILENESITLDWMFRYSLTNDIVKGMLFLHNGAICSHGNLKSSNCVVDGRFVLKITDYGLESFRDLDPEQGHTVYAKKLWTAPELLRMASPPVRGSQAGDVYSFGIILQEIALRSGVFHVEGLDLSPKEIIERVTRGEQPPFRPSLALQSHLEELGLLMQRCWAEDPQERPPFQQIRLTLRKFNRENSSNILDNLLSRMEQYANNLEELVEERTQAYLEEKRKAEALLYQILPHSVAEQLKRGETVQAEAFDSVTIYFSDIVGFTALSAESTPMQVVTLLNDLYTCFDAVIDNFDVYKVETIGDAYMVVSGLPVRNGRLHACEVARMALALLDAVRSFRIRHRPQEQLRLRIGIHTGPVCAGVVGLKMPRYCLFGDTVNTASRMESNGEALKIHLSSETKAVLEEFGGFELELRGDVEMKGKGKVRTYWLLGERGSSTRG
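HEK293 cells stably expressing human Npr1 and cGMP GloSensor pGS-40F, loaded 2 h with 2% GloSensor reagent, given compound 30 min at room temperature. Luminescence read before and 20 min after 0.1 nM hNppA.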
An asterisk follows results filed as active; ? = inconclusive; [ ] = dose if it differs, or a comment. On the % scale 0 is the no-effect control and ±100 the full control effect; potency means the concentration at half of the fitted maximal effect. Only part of the results is shown; rates above refer to the full screens.

SMILES	NPR1 antag
O=C(Nc1ccc([C@@H](O)[C@H]2COCC(=O)N2Cc2ccc(F)cc2)cc1)c1cccs1	2%
O=C(Cc1ccccc1)NCC1CCOCC1	1%
CCNC(=O)N1[C@@H]2CC[C@H]1CC(NC(=O)c1ccc(F)cc1)C2 (stereo partly specified)	-1%
CC(C)c1cc(C2CCN(Cc3cn[nH]c3-c3ccccc3)CC2)[nH]n1	3%
O=C(c1ccc(F)cc1)N1CCC(Cc2nc(-c3cnccn3)no2)CC1	-16%
COc1ccc(-n2c(=O)c3c(n2Cc2ccccc2)CN(C(=O)C(C)C)CC3)cc1	-8%[70.6 µM]
Cc1ccc(S(=O)(=O)N2CCCCCC2c2nnc(C)o2)c(C)c1 (stereo unspecified)	-4%
O=C(c1nc(-c2ccc(Cl)cc2)c2ccccn12)N1CCN(c2ncccn2)CC1	-20%
COc1cccc(CNC(=O)[C@@H]2C[C@@H](O)CN2C2CCN(C(=O)c3sc(C)nc3C)CC2)c1	-2%
COc1ccc(C(=O)N[C@@H]2CCC[C@@H]2C(=O)NCc2cc(F)cc(F)c2)cn1	9%
CCOCCn1c(=O)[nH]c2cc(C(=O)NCc3cc(=O)[nH]c(C)n3)ccc21	3%
CCc1noc(-c2cn(C3CCN(C(=O)c4ccc(F)c(F)c4)C3)nn2)n1 (stereo unspecified)	-12%
CCOc1cccc(CNC(=O)c2noc(-c3ccc4c(c3)OCO4)n2)c1	-6%
O=C([C@@H]1C[C@H](Oc2cccnc2)CN1C(=O)COc1ccccc1)N1CCCC1	-3%
Cc1cc(C(=O)N2CC(c3nnc(-c4ccncc4)o3)C3(CCOCC3)C2)n(C)n1 (stereo unspecified)	3%
Cc1nc(NCc2ccc(C(=O)N3CCCCC3)cc2)cc(C2CC(N)C2)n1 (stereo unspecified)	3%
CCn1cc(-c2ccc(OC)cc2)cc1C(=O)O	-3%
Cc1nc2c(c(-c3ccc(O)cc3)n1)CN(Cc1ccc(C(F)(F)F)cc1)CC2	-1%
CCN(CC)Cc1nc(C2(O)CCN(C(=O)c3cccc(F)c3)CC2)cs1	7%[70.6 µM]
COC(=O)N(C)Cc1ccc(F)cc1	0%[70.6 µM]
COc1ccc(CNC(=O)N2CCC3(CC2)CC(Cc2nc(C4CC4)no2)CCO3)cc1 (stereo unspecified)	-22%
CN(C(=O)Nc1ccccc1)C1CCCc2ccccc21 (stereo unspecified)	14%[70.6 µM]
COc1ccccc1OCc1cc(C(=O)N2CCN(c3cnccn3)CC2)n[nH]1	-1%
COC(=O)C1=C(C)N=C2SC=C(CC(=O)NCC3CCCO3)N2C1c1ccccc1F (stereo unspecified)	-12%
O=C(c1ccc(F)c(F)c1)N1C[C@@H](CO)[C@H](c2nc(C3CC3)no2)C1	0%
Going on with the list.
SMILES	NPR1 antag
CCCC(c1cccs1)n1cc(-c2cncnc2)nn1 (stereo unspecified)	1%
COc1ncccc1-c1cnc2n[nH]c(-c3ccc(F)cc3C)c2n1	-15%[70.6 µM]
COc1ccccc1-c1cc(Nc2ccc(N3CCOCC3)cc2)c2onc(C)c2n1	2%[70.6 µM]
N#Cc1ccc(CN2CCC3(CC2)CC(c2cccnc2)=NO3)cc1	22µM*
COc1ccc(CNC(=O)[C@@H]2CCC[C@@H](NC(=O)NC3(c4ccccc4)CCOCC3)CN(C)C(=O)C2)cc1	5%
O=C(CC1CCCCC1)N1CCC(c2noc(COc3ccc(F)cc3)n2)CC1	7.1µM*
O=C(Nc1ccccc1)C1=NO[C@@H]2CN(Cc3ccc4[nH]ccc4c3)C[C@H]12	-4%[70.6 µM]
COc1cc(OCc2ccccc2)ccc1CN1CC[C@@]2(O)CCNC[C@H]2C1	-3%
Cc1ccc(C2NC(=O)N(CC(=O)N(C)c3ccccc3)C3=C2C(=O)OC3)cc1 (stereo unspecified)	-1%
CNC(=O)NC[C@H]1CCN(Cc2ccc(OC)c(OC)c2)C[C@H]1N(C)C	2%
Cc1noc(-c2cn(C3CCCN(C(=O)c4ccc(F)c(F)c4)C3)nn2)n1 (stereo unspecified)	1%
CCn1ncc(N2CCC(NC(=O)c3ccc(C)c(F)c3)CC2)cc1=O	-1%
CC[C@H]1CN(S(=O)(=O)c2ccccc2)CC[C@H]1CC(=O)NCc1cccnc1	-7%[70.6 µM]
O=C1NCC2(CCN([S+](=O)([O-])c3cccs3)CC2)Oc2ccccc21	11%
CCc1ccc(C2CC(C(=O)NCc3ccco3)CN(C(C)=O)C2)cc1 (stereo unspecified)	-3%
CN1CCN(c2ccc(-c3nccc4c(=O)cc(N(C)C5CCOCC5)oc34)cn2)CC1	4%[70.6 µM]
COCCNC(=O)CCc1c(C)nn(-c2cccc(C)c2)c1Oc1ccccc1C	-22%
CCOc1ccccc1NC(=O)C1CCN(c2cnc3nccnc3c2)CC1	-11%
COc1cc(OC)cc(C(=O)N2CCC[C@H]2c2nc(-c3ccc(OC)c(OC)c3)no2)c1	-11%
COc1ccc(CNC(=O)Cn2nc(C)c3sc(-c4ccccc4)nc3c2=O)cc1	5%
COc1ccc(OC)c(CNC(=O)c2ccc3c(c2)N(C)C2CCCCN2C3=O)c1 (stereo unspecified)	-4%
O=C(CCc1ccccc1)N1CCN(C(=O)c2nnn3c2COC(c2ccc(Cl)cc2)C3)CC1 (stereo unspecified)	?
Cc1ccc(C)c(C(O)Cn2ccn3nc(-c4cccc(Br)c4)cc3c2=O)c1 (stereo unspecified)	-29%
COc1cccc(CNC(=O)c2cc3n(n2)CC(c2ccc4c(c2)OCO4)OC3)c1 (stereo unspecified)	-27%
Cc1noc2c(-c3cccc(CO)c3)cc(-c3cccc(C(F)(F)F)c3)nc12	-3%[70.6 µM]

14 entries already listed, ordered by length of the SMILES, falling.
SMILES	NPR1 antag
O=C(Nc1ccccc1)C1=NO[C@@H]2CN(Cc3ccc4[nH]ccc4c3)C[C@H]12	-4%[70.6 µM]
Cc1cc(C(=O)N2CC(c3nnc(-c4ccncc4)o3)C3(CCOCC3)C2)n(C)n1 (stereo unspecified)	3%
Cc1ccc(C2NC(=O)N(CC(=O)N(C)c3ccccc3)C3=C2C(=O)OC3)cc1 (stereo unspecified)	-1%
Cc1nc2c(c(-c3ccc(O)cc3)n1)CN(Cc1ccc(C(F)(F)F)cc1)CC2	-1%
COc1cccc(CNC(=O)c2cc3n(n2)CC(c2ccc4c(c2)OCO4)OC3)c1 (stereo unspecified)	-27%
COc1ccc(OC)c(CNC(=O)c2ccc3c(c2)N(C)C2CCCCN2C3=O)c1 (stereo unspecified)	-4%
COc1ccc(CNC(=O)Cn2nc(C)c3sc(-c4ccccc4)nc3c2=O)cc1	5%
CCNC(=O)N1[C@@H]2CC[C@H]1CC(NC(=O)c1ccc(F)cc1)C2 (stereo partly specified)	-1%
Cc1nc(NCc2ccc(C(=O)N3CCCCC3)cc2)cc(C2CC(N)C2)n1 (stereo unspecified)	3%
O=C(CC1CCCCC1)N1CCC(c2noc(COc3ccc(F)cc3)n2)CC1	7.1µM*
CCOc1cccc(CNC(=O)c2noc(-c3ccc4c(c3)OCO4)n2)c1	-6%
CCc1ccc(C2CC(C(=O)NCc3ccco3)CN(C(C)=O)C2)cc1 (stereo unspecified)	-3%
N#Cc1ccc(CN2CCC3(CC2)CC(c2cccnc2)=NO3)cc1	22µM*
COC(=O)N(C)Cc1ccc(F)cc1	0%[70.6 µM]

The list goes on.
SMILES	NPR1 antag
COc1ccccc1C(=O)N1CCC(C(NC(=O)c2ccccc2)C(=O)N2CCCCC2)CC1 (stereo unspecified)	5%
O=C(c1ccncc1)N1CCC(N2C(=O)C3(CCCC3)C2c2ccccc2)CC1 (stereo unspecified)	10%
C1=CCC(c2nc(C3CCOCC3)nn2-c2cccnc2)C1	2%
O=C(NC1CCCC1)N1CCc2nc(-c3ccc(Cl)cc3)nc(-c3ccccc3)c2C1	2%
COc1ccc(-c2noc(COC(=O)C3=CN(Cc4ccccc4)S(=O)(=O)N=C3C)n2)cc1	?
CC1(C)[C@H]2CC[C@@H](CNC(=O)c3cc(F)ccc3Br)[C@@H]1C2	3%[70.6 µM]
C[C@@H](NC(=O)c1cnccn1)c1c(-c2ccc(F)cc2)noc1C(=O)O	-10%[70.6 µM]
C[S+](=O)([O-])Nc1cccc(Nc2cnc3ccc(-c4cccc(CO)c4)nn23)c1	5%[70.6 µM]
CCc1nc(-c2ccc(OC3CCN(C(=O)c4sc(C)nc4C)C3)cc2)no1 (stereo unspecified)	-20%
O=C1C(N2CCN(Cc3ccc[nH]3)CC2)CCN1Cc1cccnc1 (stereo unspecified)	0%
Cc1cc(C)c2[nH]c(C(=O)N(C)Cc3ccc4nsnc4c3)c(C)c2c1	4%
COc1ccc(CN2CCc3nn(CC(C)C)c(=O)n3CC2)cc1Cn1ccnc1	-3%
O=C([C@@H]1C[C@H](Oc2ccccc2)CN1C(=O)C1CCCC1)N1CCOCC1	0%
COc1ccccc1N1CCN([C@@H]2[C@H](O)[C@H](CO)O[C@@H]2CNC(=O)c2cccs2)CC1	4%
O=C(c1ccco1)N1CCC[C@H]1c1nc(-c2ccccc2)no1	-3%
CC1CCc2nn3ccn(CC(=O)Nc4cccc(Cl)c4)c(=O)c3c2C1 (stereo unspecified)	-23%
CCNC(=O)[C@H]1CCC[C@H]1NC(=O)c1ccc(OC)cc1	0%
O=S(=O)(c1ccc2c(c1)OCCO2)N1CCC(Cc2nc(-c3cccnc3)n[nH]2)C1 (stereo unspecified)	-20%
CN1CCOc2c(C(=O)NCc3cccnc3)cc(-c3cccc4[nH]ccc34)cc21	2%[70.6 µM]
O=C(NC1C[C@H]2CC[C@@H](C1)N2C(=O)CCC1CCCCC1)c1ccncc1 (stereo partly specified)	?
CC(c1ccon1)N(C)C(=O)c1csc2nc(-c3cccc(C(F)(F)F)c3)cn12 (stereo unspecified)	3%
COCCn1ccc2c(NC(=O)Cn3nc4c(cc3=O)CCCC4)cccc21	-5%
Cc1nn(C)c(C)c1S(=O)(=O)NCC(=O)N1CCCCCNC(=O)CC1c1ccccc1 (stereo unspecified)	1%
COCCOCc1nc(C2CCN(C(=O)Nc3ccc(C(=O)OC)cc3)CC2)no1	0%
O=C1c2c(nc(CNCC3CC3)n2Cc2ccccc2)NCCN1Cc1ccccc1	0%[70.6 µM]
Remaining list, next part
SMILES	NPR1 antag
Cc1ccccc1C(=O)NC(C(=O)NC(C)C(C)C)C1CCN(C(=O)c2cccs2)CC1 (stereo unspecified)	1%
O=C(CC1CCN(C(=O)c2ccoc2)C1)NCc1ccccc1 (stereo unspecified)	3%
CCc1cc(=O)n(CC(=O)Nc2cc(OC)ccc2OC)c(-c2cccc(F)c2)n1	-11%
COCC(=O)NC1CCC12CCN(C(=O)NCc1ccc(C)cc1)CC2 (stereo unspecified)	-2%
C[C@@H]1CN(c2nc(-c3ccccc3)no2)CC[C@@]1(O)C1CCC1	5.6µM*
CCOc1ccccc1NC(=O)N(C)CC1CCOCC1	5%
Cc1nc(N2CCN(C(=O)c3ccc(C)c(F)c3)CC2)cc(C(F)(F)F)n1	-4%
Cc1noc([C@@H](C)NC(=O)C2CCCC2)c1C(=O)O	2%[70.6 µM]
Cc1noc(C)c1-c1cc2cc(CN(C)C)oc2c(NCCc2ccccc2)n1	-4%[70.6 µM]
CSCCC(=O)NC1CC(=O)N(Cc2cccc(F)c2)C1 (stereo unspecified)	5%
CCN(CCn1cccn1)C(=O)c1csc2nc(-c3cccc(F)c3)cn12	1%
O=C([C@H]1C[C@H](Oc2ccccc2)CN1C(=O)C1CCCC1)N1CCOCC1	7%
Cc1cc(C)cc(NC(=O)N2CCC(Oc3ncccc3C(=O)N(C)C)C2)c1 (stereo unspecified)	-6%
COc1ccc(-c2cc(C[C@H]3CNCC[C@H]3CC(=O)NCCN3CCOCC3)no2)cc1	2%
CC(C)(C)c1cnc([C@@H]2COCCN2Cc2ccccc2O)[nH]1	1%[70.6 µM]
CCn1cnnc1-c1nn(C)c2c1CN(C(=O)Cc1c[nH]c3ccccc13)CC2	3%
Cc1ccc(NC(=O)c2cc3n(n2)CC(c2ccc(Cl)cc2)OC3)cc1C (stereo unspecified)	-26%
Cc1cccc(=O)n1CCCn1cc(C2CCCNC2)nn1 (stereo unspecified)	0%
Cc1nc(C)c(C(=O)N2CCCC(c3nn(C)c(=O)n3C3CCCC3)C2)s1 (stereo unspecified)	-2%
CN(CCc1nc2ccc(Cl)cc2[nH]1)c1cc(C2CC(O)C2)nc(N)n1 (stereo unspecified)	-8%
O=C1C[C@H]2CC[C@@H](CN1CC(=O)N(Cc1c(F)cccc1Cl)C1CC1)N2	0%
O=C(N[C@@H]1CCN(C(=O)c2ccc3c(c2)OCO3)C[C@H]1O)c1cnccn1	7%
N#Cc1ccc(CN2CC[C@@H]3OCC(=O)N(c4ccccc4)[C@H]3CC2)cc1	5%[70.6 µM]
CCC(=O)N1CCC2(CC1)c1[nH]c3ccc(OC)cc3c1CCN2C	9%
O=C(N1CCCCCC1CN1CCOCC1)C1(c2ccccc2)CC1 (stereo unspecified)	3%
Later entries:
SMILES	NPR1 antag
COc1cc2c(cc1OC)C(C[C@H]1CN(C(=O)c3cccs3)CC[C@H]1CC(=O)O)=NCC2	-8%
CN(C)c1ccc(CN2CCC3(CN[S+](=O)([O-])c4ccccc4N3)C2)cc1 (stereo unspecified)	-1%
COc1ccc([C@H]2C[C@@H](O)[C@@H](O)[C@@H]2NCc2ccc(OC)nc2)cc1	5%[70.6 µM]
COc1cccc(CN2C[C@@H]3C(=O)N(CCN4CCc5ccccc5C4)C(=O)[C@@H]3C2)c1OC	-8%
N#Cc1cc2n(n1)CCCN(C(=O)CC(c1ccccc1)c1ccco1)C2 (stereo unspecified)	-1%
COc1ccc(C(=O)N2CCC(c3nn(-c4ccc(Cl)cc4)c(=O)[nH]3)CC2)cc1	-13%
Cc1noc(-c2nc(-c3ccc(OC(C)C)cc3)no2)n1	?
COc1ccc(C(=O)N[C@@H]2CCC[C@@H]2C(=O)NCCCN2CCOCC2)cc1	0%
CN1CCCC2(CCN(C(=O)Cc3cccc4ccccc34)C2)C1=O (stereo unspecified)	4%
